# VDR inh – vitamin D3 receptor (human) inhibition | VDR-SRC2-3 peptide fluorescence polarization, 2 h | hit rate 0.93% among 400,000 | P11473 | Potency, µM, inactives show max response, negative = inhibition, most hits filed as inhibitors; active = well fitted inhibition curve with a large enough effect; inconclusive = small, poorly fitted or top-dose-only effect, or another doubt; inactive = no such curve, though single readings can be large or run the other way; also: series mostly up to about 120 µM
# Target sequence (P11473 whole entry, looked up): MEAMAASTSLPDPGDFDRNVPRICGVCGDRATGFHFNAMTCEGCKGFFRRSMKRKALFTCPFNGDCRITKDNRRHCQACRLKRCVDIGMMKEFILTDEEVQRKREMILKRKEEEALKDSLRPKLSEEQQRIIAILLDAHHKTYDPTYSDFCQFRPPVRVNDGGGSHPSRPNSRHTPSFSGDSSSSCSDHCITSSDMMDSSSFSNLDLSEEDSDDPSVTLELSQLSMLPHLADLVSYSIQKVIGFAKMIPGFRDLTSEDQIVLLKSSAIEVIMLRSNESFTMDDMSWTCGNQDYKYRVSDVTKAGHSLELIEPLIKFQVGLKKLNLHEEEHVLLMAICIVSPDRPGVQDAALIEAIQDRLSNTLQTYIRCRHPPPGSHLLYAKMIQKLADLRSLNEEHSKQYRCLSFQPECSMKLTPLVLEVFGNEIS
#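 Reagent solutions, kept cold and dark, are dispensed first; compounds are then pinned in at 23 nl, plates briefly spun, and incubated 2 h at ambient temperature. Inhibition of VDR–SRC2-3 peptide binding is read by fluorescence polarization.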
# An asterisk follows results filed as active; ? = inconclusive; [ ] = another dose, or the depositor's remark. % is scaled to controls: 0 for no effect and ±100 for the full control effect; potency is read from the fitted curve at half-maximal effect. Only part of the results is shown. The share of hits here may be higher or lower than overall.
# The first five compounds as a preview:
entry | VDR inh | structure
1 | ? | CCOC(=O)c1cc2c(=O)n3ccccc3nc2n(Cc2ccco2)c1=NC(=O)c1ccc(OC)cc1OC
2 | 3% | CC1C2NC(=O)N(Cc3ccccc3)C1(C)Oc1ccccc12 (configuration not stated)
3 | 9% | CC(=O)Nc1ccc(NC(=O)COc2ccc(-c3ccccc3)cc2)cc1
4 | 3% | CCOP(=O)(c1ccccc1)c1nc(-c2ccccc2C)oc1N1CCCCC1 (configuration not stated)
5 | -2% | O=C(C[C@@H]1C/C=C\C[C@H](Cc2ccc(F)cc2)C(=O)OCCNC1=O)N[C@H](CO)Cc1ccccc1

# Main list, previewed entries included:
entry | VDR inh | structure
1 | ? | CCOC(=O)c1cc2c(=O)n3ccccc3nc2n(Cc2ccco2)c1=NC(=O)c1ccc(OC)cc1OC
2 | 3% | CC1C2NC(=O)N(Cc3ccccc3)C1(C)Oc1ccccc12 (configuration not stated)
3 | 9% | CC(=O)Nc1ccc(NC(=O)COc2ccc(-c3ccccc3)cc2)cc1
4 | 3% | CCOP(=O)(c1ccccc1)c1nc(-c2ccccc2C)oc1N1CCCCC1 (configuration not stated)
5 | -2% | O=C(C[C@@H]1C/C=C\C[C@H](Cc2ccc(F)cc2)C(=O)OCCNC1=O)N[C@H](CO)Cc1ccccc1
6 | 2% | CC1CCC(NC(=O)CSc2nncn2C)CC1 (configuration not stated)
7 | -1% | Cn1c(=O)cc(OCC(=O)N2CCN(c3ccccc3)CC2)c2ccccc21
8 | -7% | CCOC(=O)/C=C1\Nc2ccccc2OC1=O
9 | 11% | COc1ccc(CC2C(=O)Nc3ccc(Br)cc32)cc1OC (configuration not stated)
10 | -17% | CCN(CC)c1ccc(C2C(C(=O)OC)=C(C)NC(C)=C2C(=O)OC)cc1
11 | 3% | CC(C)CN(C(=O)Cn1c(=O)cnc2ccccc21)C1CCS(=O)(=O)C1 (configuration not stated)
12 | -11% | O=C(Nc1ccc(Br)cc1F)N1CCC2(CC1)Oc1ccccc1C(=O)N2Cc1ccccc1F
13 | 7% | Cc1ccc(CN2CCCn3nc(C(=O)NCc4ccc(N(C)C)cc4)cc3C2=O)cc1
14 | 1% | CC(=O)c1ccc(OCC(O)CN2CCN(S(=O)(=O)c3c(C)c(C)cc(C)c3C)CC2)cc1 (configuration not stated)
15 | 7% | CN(CC(=O)NCCc1ccc(F)cc1)Cc1cccs1
16 | 3% | FC(F)(F)c1ccc(/C=N/N2CCN(Cc3ccccc3)CC2)cc1
17 | 0% | CC(CCCCC(=O)Nc1ccc(C(F)(F)F)cc1)NCCc1cnc[nH]1 (configuration not stated)
18 | -4% | O=C1CC(NCC2CCCO2)C(=O)N1c1ccc(F)cc1 (configuration not stated)
19 | 11% | Cc1cc(C)nc(SCC(=O)NCC2COc3ccccc3O2)n1 (configuration not stated)
20 | -13% | COc1ccc(CNC(=O)COC(=O)c2ccc(F)c(S(=O)(=O)N3CCCCC3)c2)cc1OC
21 | -8% | Nc1c2c(nn1-c1ccc(C(=O)O)cc1)CNC2
22 | 40µM* | COc1cccc2c1C(=O)C=C(C)C2=O
23 | 8% | CC1=C(C)CC(C(=O)Nc2nccs2)C(C(=O)O)C1 (configuration not stated)
24 | -12% | CN(CC(=O)NCc1ccco1)S(=O)(=O)c1cccc2cccnc12
25 | -15% | CN(C(=O)c1ccc(NC(=O)Cc2cccc(NC(=O)C3CCCN(C(=O)C4CCCCC4)C3)c2)cc1)C1CCCC1 (configuration not stated)
26 | -3% | Cc1ccc(CN2CC(C(=O)N3CCN(S(=O)(=O)c4cccc(F)c4)CC3)CC2=O)cc1 (configuration not stated)
27 | 15% | O=C(Nc1cccc(Cl)c1)N(CCCN1CCOCC1)Cc1ccccc1F
28 | -28% | O=C(NCc1ccc(F)cc1)c1ccc(Br)o1
29 | -8% | CCN(CC)C(=O)Cn1cc(C(=O)C2CC2)c2ccccc21
30 | -5% | CCOc1ccc(S(=O)(=O)N2Cc3ccccc3CC2C(=O)O)cc1 (configuration not stated)
31 | -14% | Cc1ccc(S(=O)(=O)/N=C(/c2ccc(F)cc2)N2CCOCC2)cc1
32 | -11% | C=CCOc1ccccc1CN1CCC(Cc2ccccc2)CC1
33 | -12% | Cc1ccc(C)c(N(C)S(=O)(=O)c2cccc3nsnc23)c1
34 | -9% | CC1CCN(C(=O)Cn2c(=O)n(Cc3ccco3)c(=O)c3sccc32)CC1
35 | 8% | O=C(CSc1nnnn1-c1ccc(C(=O)O)cc1)NC1CC1
36 | 25% | CCc1ccccc1NC(=O)CSc1nc2[nH]c(=O)cc(O)c2s1
37 | -5% | COC(=O)c1ccccc1N=Nc1c(C)noc1C
38 | 6% | Cc1ccccc1NC(=O)Cn1nc(C)n2cccc2c1=O
39 | -8% | CNc1c(C(=O)O)ccc2c1C(=O)c1ccccc1C2=O
40 | 0% | Cc1ccc(C)c(NS(=O)(=O)c2csc(C(N)=O)c2)c1

# In the list so far, these have an NH in an aromatic ring:
entry | VDR inh | structure
17 | 0% | CC(CCCCC(=O)Nc1ccc(C(F)(F)F)cc1)NCCc1cnc[nH]1 (configuration not stated)
36 | 25% | CCc1ccccc1NC(=O)CSc1nc2[nH]c(=O)cc(O)c2s1

# Continuation.
entry | VDR inh | structure
41 | -21% | Cc1ccc2nc(SCC(=O)Nc3cccc(S(=O)(=O)N(C)C)c3)[nH]c2c1
42 | 11% | CCCOC(=O)CCNc1n[nH]c(=O)[nH]c1=O
43 | 21% | O=C(/C=C/c1ccccc1[N+](=O)[O-])NNC(=O)c1ccncc1
44 | -5% | S=C(Nc1ccc(Br)cc1)NC1CCN(Cc2ccccc2)CC1
45 | 7% | Cc1ccc(NC(=O)CN(C)C(=O)c2cc3c(s2)CCCCC3)cc1
46 | -4% | Cc1cc(NC(=O)CN2CCC(O)(c3cccc(F)c3)CC2)no1
47 | 6% | COc1ccc(-n2nc3ccccc3n2)cc1
48 | -2% | O=C(Nc1ccc(C(F)(F)F)cc1)c1cnc(N2CCN(c3ccccn3)CC2)c2ccccc12
49 | -12% | CCC(C)NC(=O)CSc1nnc(-c2ccc(C(C)(C)C)cc2)n1C (configuration not stated)
50 | -14% | Cn1c(=O)oc2cc(S(=O)(=O)NCCC(=O)N3CCc4ccccc43)ccc21
51 | -7% | Cc1noc(C)c1COC(=O)c1cnc(Cl)c(Cl)c1
52 | -1% | CC(C(=O)NCc1ccccc1)n1ccc2cc(S(=O)(=O)N3CCCC3)ccc21 (configuration not stated)
53 | 2% | CCOc1ccc(N2C(=O)CC(NNc3nc4ccccc4s3)C2=O)cc1 (configuration not stated)
54 | 37%[activator] | CCOC(=O)C1=C(C)S/C(=C\N(C)C)C1=O
55 | -5% | COc1ccc(-c2c(C)nn3c(C(F)(F)F)cc(-c4ccccc4)nc23)cc1
56 | -5% | CCOc1cc(/C=C/C(=O)N(CC)CC(=O)NCc2cccs2)cc(Cl)c1OC
57 | -8% | CCOC(=O)c1sc(=NC(=O)COc2ccccc2)n(C)c1C
58 | 3% | CCOC(=O)C1CCCN(C(=O)c2ccc(NS(=O)(=O)c3ccc4[nH]c(=O)[nH]c4c3)cc2)C1 (configuration not stated)
59 | -4% | CCN(CC)CCn1c2c(c(SCC(=O)Nc3ccc4c(c3)OCCO4)nc1=O)CCCC2
60 | -17% | Cc1ccc(CCNC(=O)C2CCC(=O)N(Cc3ccccc3F)C2)o1 (configuration not stated)
61 | -9% | Cc1nn(CC(=O)Nc2ccc3c(c2)OCO3)c(C)c1Cl
62 | -17% | O=C(NCCCl)C1Cc2c(ccc3ccccc23)O1 (configuration not stated)
63 | 10% | CCOC(=O)N1CCN(C(=O)CN(C2CCCCC2)S(=O)(=O)c2c(C)cc(C)cc2C)CC1
64 | 3% | Cc1nc(N2CCOCC2)nc(N2CCCCC2C)c1[N+](=O)[O-] (configuration not stated)
65 | 15% | Cc1[nH]c(C)c(S(=O)(=O)N2CCN(c3cccc(C(F)(F)F)c3)CC2)c1C(=O)N1CCCC1
66 | -3% | Cc1ccc(-c2nc(C(F)(F)F)cc(=O)[nH]2)cc1
67 | ? | Cc1nc2cc(N)ccc2n1-c1ccccc1
68 | -6% | Cc1cc(=O)[nH]c(N/N=C/c2c(C)nn(-c3ccc(F)cc3)c2Cl)n1
69 | ? | CN(C)c1ncnc2c1NC1=C(S2)C(=NCCCC(=O)O)CC(C)(C)C1
70 | 1% | COc1cc(CNCCSc2nnnn2C)ccc1OCc1ccccc1
71 | -1% | CC(=O)NCCCNc1ccc([N+](=O)[O-])cc1
72 | -21% | COc1ccc(C(=O)O/N=C2\CCCc3nonc32)cc1
73 | -5% | O=C(c1ccc2c3c(cccc13)CC2)C1CCCN(Cc2ccccn2)C1 (configuration not stated)
74 | 9% | N#Cc1ccc(CN2CCN(C(=O)C3CC(=O)N(c4ccccc4F)C3)CC2)cc1 (configuration not stated)
75 | -20% | CCCCNC(=O)c1ccccc1NC(=O)CCSc1ccccc1
76 | -3% | COc1ccccc1CNC(=O)C1CCCN(S(=O)(=O)c2cccc3nonc23)C1 (configuration not stated)
77 | -5% | COc1cc2c(cc1OC)CN(C(=O)CCNC(=O)c1ccccc1Cl)CC2
78 | ? | c1ccc(Cc2nc3ccccc3s2)cc1
79 | 11% | Cc1cc2oc(C(=O)Nc3nonc3C)c(C)c2cc1Cl
80 | -17% | CC(=O)/C(=N\Nc1ccc(Cl)cc1Cl)Sc1cccc2cccnc12
81 | -6% | CCCc1cc(=O)[nH]c(SCc2nc(-c3ccc(OC)cc3)no2)n1
82 | 2% | CC(C)N1CCN(Cc2cccc3nonc23)CC1CCO (configuration not stated)
83 | -4% | C/C(=N\NC(=O)C1CC1c1ccccc1)c1cccs1 (configuration not stated)
84 | -1% | O=C(OC1CCOC1=O)c1ccc(S(=O)(=O)N2CCCCCC2)cc1 (configuration not stated)
85 | -3% | CCN(CC(=O)NCC(=O)Nc1cccc(C)c1C)Cc1ccccc1
86 | -14% | O=C(CCC1CCCN(C(=O)c2cc3ccccc3o2)C1)NCc1ccc(F)c(F)c1 (configuration not stated)
87 | -13% | CCCN(CC(=O)Nc1ccccc1OC)C(=O)c1ccc(COc2ccccc2)o1
88 | 12% | Cc1n[nH]c(=S)n1/N=C/c1c(O)ccc2ccccc12

# Fetched by compound from above:
entry | VDR inh | structure
87 | -13% | CCCN(CC(=O)Nc1ccccc1OC)C(=O)c1ccc(COc2ccccc2)o1
85 | -3% | CCN(CC(=O)NCC(=O)Nc1cccc(C)c1C)Cc1ccccc1
81 | -6% | CCCc1cc(=O)[nH]c(SCc2nc(-c3ccc(OC)cc3)no2)n1
83 | -4% | C/C(=N\NC(=O)C1CC1c1ccccc1)c1cccs1 (configuration not stated)
88 | 12% | Cc1n[nH]c(=S)n1/N=C/c1c(O)ccc2ccccc12
84 | -1% | O=C(OC1CCOC1=O)c1ccc(S(=O)(=O)N2CCCCCC2)cc1 (configuration not stated)

# The results go on.
entry | VDR inh | structure
89 | 9% | O=C(CNC(=O)c1ccc(Cl)c([N+](=O)[O-])c1)NCC1CCCO1 (configuration not stated)
90 | 0% | CCN(CC)C(=O)Cn1nc(C)c2ccccc2c1=O
91 | -1% | NS(=O)(=O)c1ccc(CCNS(=O)(=O)c2ccc3c(c2)NC(=O)CO3)cc1
92 | -19% | CSCC(=O)N1CCCC(CNC(=O)c2ccc(-c3ccccc3)cc2)C1 (configuration not stated)
93 | 9% | COc1ccc(CCNC(=O)CCc2c(C)c3cc4c(C)c(C)oc4cc3oc2=O)cc1OC
94 | 5% | COc1cccc(CC(=O)Nc2cc(C(F)(F)F)ccc2N2CCCC2)c1
95 | 13% | Cn1c(=O)cc(SCC(=O)NCCCN2CCN(c3ccccc3F)CC2)c2ccccc21
96 | 3% | CCOC(=O)CCCCC(=O)c1[nH]c(=O)[nH]c1CSCCO
97 | -6% | Cc1cccc(-c2nc3c4ccccc4nc(NCCc4ccccc4)n3n2)c1
98 | 9% | CCC(NS(=O)(=O)c1ccc2c(c1)Cc1cc(S(=O)(=O)NC(CC)C(=O)O)ccc1-2)C(=O)O (configuration not stated)
99 | -6% | Cc1ccc(S(=O)(=O)NC2=C(N3CCN(Cc4ccccc4)CC3)C(=O)c3ccccc3C2=O)cc1
100 | 5% | O=C(COc1ccc(F)cc1)N/N=C/c1cccc2cccnc12
101 | ? | O=C(CN1C(=O)COc2ccc(Cl)cc21)Nc1ccccn1

# From no. 63 up to 64, as listed above:
entry | VDR inh | structure
63 | 10% | CCOC(=O)N1CCN(C(=O)CN(C2CCCCC2)S(=O)(=O)c2c(C)cc(C)cc2C)CC1
64 | 3% | Cc1nc(N2CCOCC2)nc(N2CCCCC2C)c1[N+](=O)[O-] (configuration not stated)

# High-throughput results from PubChem BioAssay.
